Screens: PubChem, ICCB-Longwood Screening Facility, Harvard Medical School
Sa growth inh: S. aureus growth inhibition at 42 and 30 °C, primary screen, LtaS inhibitor project, RN4220, two temperatures; 170,000 compounds, 0.53% hits; OD600, 20 h, 42 °C; active compounds read low; relative growth, % (test concentration not listed);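 active means growth at 42 °C up to 50% and 20 or more points under that at 30 °C, or under 10% at both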;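 further: 300 nL library stock went into each well; scaled to the means of positive and negative controls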
GIV-Gai inh: inhibitors of GIV peptide binding to Galpha-i3, primary screen, biochemical, fluorescence polarization, FITC-GIV GBA peptide, rat Galphai3; 90 min; active compounds read low; scaled: aluminum fluoride 0%, vehicle 100%; percent of control (FP), % (concentration not given with the values); 210,000 compounds, 0.42% hits;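 active means replicate mean at 85% of control or lower, very high polarization wells dropped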;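 further: wells of about 15 µL received 100 nL stock; the first replicate is given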
Target sequence (P08753 whole entry, looked up): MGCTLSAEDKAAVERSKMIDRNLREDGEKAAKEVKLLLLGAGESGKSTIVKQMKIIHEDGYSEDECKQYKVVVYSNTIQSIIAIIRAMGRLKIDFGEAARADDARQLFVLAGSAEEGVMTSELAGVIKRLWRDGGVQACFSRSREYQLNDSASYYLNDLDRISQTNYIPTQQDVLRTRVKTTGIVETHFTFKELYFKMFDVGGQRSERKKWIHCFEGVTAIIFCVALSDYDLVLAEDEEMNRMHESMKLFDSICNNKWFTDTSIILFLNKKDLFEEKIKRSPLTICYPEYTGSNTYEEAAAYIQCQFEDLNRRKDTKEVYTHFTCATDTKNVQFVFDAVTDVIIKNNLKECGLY
HCMV NEC inh: inhibitors of HCMV UL50-UL53 interaction, biochemical, HTRF. normalized percent inhibition. inhibition, % (concentration not given with the values). HCMV UL50-UL53 nuclear egress complex (human cytomegalovirus). 190,000 compounds, 0.15% hits;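 active means both replicates at 50% or more, plus weaker picks with an unusually low signal ratio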;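 further: stock transfer was 100 nL into about 20 µL; 0% = negative control wells and 100% = wells with untagged competitor protein; inactives centre near -12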
Sa growth inh second temp: second read-out of Sa growth inh, no call of its own (marks repeat the call); relative growth, %; measured here: growth at 30 °C;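 optical density after 20 h as mean of two plates; 100% = untreated growth and lower means inhibition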
Starred values were filed as active, the others as inactive; . = not tested or not shown; & = joins results of further samples.

SMILES	Sa growth inh	Sa growth inh second temp	GIV-Gai inh	HCMV NEC inh
COc1ccc(-c2cnc3cc(-c4ccc(Cl)cc4)nn3c2N)cc1OC	.	.	108	3
CCn1c(CN(C)C2CCCCC2)nc2ccccc21	94	77	104	15
CCN(Cc1cc2cc(C)ccc2[nH]c1=O)S(C)(=O)=O	.	.	102	-16
O=C(NS(=O)(=O)c1ccc(Cl)cc1)c1ccccc1	74	80	.	-16
COc1ccccc1CNC(=O)c1cnc2sc(N3CCOCC3)nn2c1=O	94	100	110	.
CCn1c(Cc2ccccc2)nnc1SCC(=O)c1ccc(S(C)(=O)=O)cc1	90	84	.	-31
CCn1cc(Br)c(C(=O)NC(C)c2ccccc2)n1 (stereo not given)	97	100	102	8
O=C(O)c1cccc(S(=O)(=O)Nc2ccccc2Cl)c1	105	99	100	-9
Cc1cccc(C(=O)Nc2ccc(S(=O)(=O)N3CCCCC3c3cccnc3)cc2)c1 (stereo not given)	93	73	102	.
CCOc1ccc([C@H]2[C@@H]3CN(Cc4ccccc4)CC=C3C(C#N)=C(N)C2(C#N)C#N)cc1	88	78	.	-18
COc1ccc2[nH]c3c(=O)n(CCCC(=O)NCc4ccco4)c(=S)[nH]c3c2c1	101	80	105	-13
c1ccc(N2CCN(c3ncnc4c3nc3n4CCCCC3)CC2)cc1	98	102	102	.
Cc1cccc(NC(=O)C2NC(=O)CC2c2ccccc2)c1C (stereo not given)	84	89	106	5
CC(CNC(=O)c1csc2c1CCCCC2)c1ccccc1 (stereo not given)	97	89	104	11
OCCNc1nc2nc(Cl)nc(N3CCCCC3)c2n1Cc1ccccc1	.	.	103	-9
Cc1nnc(N2CCN(c3ccccc3)CC2)c2c1nnn2Cc1ccccc1	102	88	102	-9
COC(=O)c1sccc1N1C(=O)Nc2ccccc2N1O	104	89	104	.
CCOC(=O)N1CCC(NS(=O)(=O)c2ccc(C)cc2)CC1	94	93	104	-14
CCOC(=O)Cn1nc(C)c(NC(=O)COc2ccc(OC)cc2)c1C	109	98	103	15
CCc1ccc(C2=NN(CCC(=O)NCCc3ccc(Cl)cc3)C(=O)CC2)cc1	112	105	107	.
CCOC(=O)c1cnc2ccccn2c1=O	97	99	.	-31
Cc1ccc(CNC(=O)Cn2c(=O)n(Cc3ccc(F)cc3)c(=O)c3sc4ccccc4c32)cc1	106	91	101	-18
CN(C(=O)Cn1c(SCc2ccccc2F)nc2ccncc21)C1CCCCC1	92	93	100	8
C=CCNC(=O)COc1ccc2c(c1)C(=O)CC(C)(C)O2	106	79	106	-2
Clc1ccccc1CNc1nc2ccccc2c2nc(-c3ccccc3)nn12	90	102	106	25
COc1ccc(Nc2nnc(SCC3CCCO3)s2)cc1 (stereo not given)	87	87	.	-28
CC(C)(C)C(=O)COC(=O)c1ccccc1Cl	96	97	.	6
Cc1ccc(N2C(=O)CCS2(=O)=O)cc1S(=O)(=O)N1CCCCC1	.	.	104	-15
Cc1ccc(N=C2N=C(N)c3ccccc32)cc1	95	89	93	-84
COc1ccc(-c2nc(S(=O)(=O)c3ccccc3)c(N3CCC(C)CC3)o2)cc1	101	94	104&96	4&-12
Cc1ccc(N(CC(=O)Nc2ccc(Cl)cc2C)S(=O)(=O)c2c(C)nn(C)c2C)cc1	.	.	99	-14
O=S(=O)(CC(O)CS(=O)(=O)c1ccc(Cl)cc1)c1ccccc1 (stereo not given)	104	100	101	1
Cc1ccc(NC(=O)CSc2nc(-c3ccco3)nc3cc(=O)[nH]n23)cc1	86	74	96	.
O=C(Nc1ccc(Cl)cc1)c1cnn(-c2ccc(F)cc2)c1	.	.	101	-6
Clc1ccc(-c2noc(-c3ccc(NCc4ccc5c(c4)OCO5)nn3)n2)cc1	.	.	94	-28
CCN(C(=O)C1CCCCC1)c1ccccc1C	112	105	99	5

Compound profiles, as listed above.
Cc1ccc(N=C2N=C(N)c3ccccc32)cc1 as listed: Sa growth inh: 95; Sa growth inh second temp: 89; GIV-Gai inh: 93; HCMV NEC inh: -84
O=S(=O)(CC(O)CS(=O)(=O)c1ccc(Cl)cc1)c1ccccc1 (stereo not given) as listed: Sa growth inh: 104; Sa growth inh second temp: 100; GIV-Gai inh: 101; HCMV NEC inh: 1

Additional structures follow:
SMILES	Sa growth inh	Sa growth inh second temp	GIV-Gai inh	HCMV NEC inh
Cc1ccc(C(c2sc3nc(-c4ccco4)nn3c2O)N2CCC3(CC2)OCCO3)cc1 (stereo not given)	140	83	99	.
CSc1nc(O)cc(=O)[nH]1	124	76	105	-7&0
OCCNCCSc1nc2ccccc2s1	92	84	.	-3
O=C1c2ccccc2C(Nc2ccccc2)N1Cc1ccccc1 (stereo not given)	113	93	101	.
Cc1nn(CCS(=O)(=O)c2ccc(Cl)cc2)c(C)c1Br	108	95	100	7
Cc1ccccc1Cn1c(=O)n(CCCCC(=O)NCCc2ccccc2)c(=O)c2ccccc21	94	92	104	-18
CCN(CC)CCCOc1c(OC)cccc1OC	94	105	99	-8
NC(=O)c1nc(-c2cccc(F)c2F)nc2c1n(Cc1ccccc1)c(=O)n2-c1ccc(F)cc1	.	.	106	4
COc1ccccc1-c1nnc(C2CCN(S(=O)(=O)c3cccc(Cl)c3)CC2)o1	.	.	100	-28
Cc1cc(OCC(=O)N(Cc2ccc(Cl)cc2)Cc2ccco2)cc(C)c1Cl	122	87	103	.
COC(=O)Cn1c(C)cc(=O)n2nc(-c3ccccc3Cl)nc12	.	.	105	11
CC(C)(C)c1ccc(C2CC(=O)NC3=C2C(=O)CCC3)cc1 (stereo not given)	.	.	103	16

Grouped by structure: those above containing bromine
SMILES	Sa growth inh	Sa growth inh second temp	GIV-Gai inh	HCMV NEC inh
CCn1cc(Br)c(C(=O)NC(C)c2ccccc2)n1 (stereo not given)	97	100	102	8
Cc1nn(CCS(=O)(=O)c2ccc(Cl)cc2)c(C)c1Br	108	95	100	7

The results go on.
SMILES	Sa growth inh	Sa growth inh second temp	GIV-Gai inh	HCMV NEC inh
CCOC(=O)n1c(=O)oc2cc(Br)ccc21	88	55	106	-16
COc1ccc(C(=O)Nc2ccc3oc(-c4ccc(F)cc4Cl)nc3c2)cc1	108	85	105	.
O=C(CSc1nc2ncccc2n2cccc12)NCc1cccnc1	.	.	105	-95
O=C(NC1CCCCC1)C(c1cccs1)N(Cc1cccs1)C(=O)c1cccs1 (stereo not given)	110	83	99	-14
Fc1ccc(-c2cc(-c3nc(-c4ccccc4)no3)[nH]n2)cc1	105	89	107	.
COC(=O)c1ccc(NC(=O)Cn2c(=O)nc(-c3ccccc3)c3ccccc32)cc1	98	92	109&113	8
Cc1ccc(C(=O)n2nc(C)c(S(=O)(=O)N3CCCCCC3)c2C)cc1C	96	93	106	.
COc1cccc(NC(=O)Nc2cccc(C)n2)c1	.	.	103	-5
COc1ccccc1Nc1nn2c(=O)c3ccc(C(=O)Nc4ccc(F)cc4)cc3nc2s1	147	98	105	.
COc1ccc(-c2cc(C(F)(F)F)nc(SCC(=O)Nc3ccc(O)cc3)n2)cc1OC	92	87	99	-23
O=C(O)C1CCCN1C(=O)C12CC3CC(CC(C3)C1)C2 (stereo not given)	108	107	95	-34
COc1cccc(CSc2nc3n(n2)C(c2cccs2)C(C(=O)Nc2ccccc2C)=C(C)N3)c1 (stereo not given)	123	77	98	.
CCOC(=O)c1nn(-c2ccc(C)cc2)c(=N)s1	69	57	101	-36
Cc1cccc(C)c1OCCCn1c(CCNC(=O)C2CCCCC2)nc2ccccc21	81	36	102	-4
O=C(CSc1ccc(N2CCCC2)nn1)Nc1ccc(Cl)cc1	.	.	104	-28
Cc1cccc(-c2nc(SCc3cc(=O)c4cccc(F)c4[nH]3)n[nH]2)c1	69	84	101	.
Cc1ccc(C)c(N2C(=O)N(Cc3cccc(C(F)(F)F)c3)c3ccccc3S2(=O)=O)c1	79	97	105	.
CCOc1ccccc1NC(=O)CC#N	98	91	.	0
Nc1ccccc1OCCOCCOc1ccccc1N	91	82	105	-12
Cc1oc(-n2cccc2)c(C#N)c1C	109	91	110	-2
Cc1ccc(C)c(C(=O)NCCc2ccccn2)c1	93	92	.	-3
O=C(CCC(=O)N1CCCC1)Nc1ccc(F)cc1	93	85	105	-9
CC(Oc1ccccc1F)C(=O)NCCN1CCCCC1 (stereo not given)	108	71	107	-13
COCCCn1c(SCC(=O)Nc2ccc(OC)cc2)nc2c(sc3ccccc32)c1=O	112	94	103	.
COC(=O)c1c(NC(=O)COc2ncnc3c2cnn3-c2ccccc2)sc2c1CCC2	83	66	.	-17
CCCNCC(=O)Nc1ccc2c(c1)OCO2	103	87	.	1
Cc1ccc2c(c1)N(CC(=O)Nc1ccccc1C(F)(F)F)C(=O)c1cccnc1O2	102	99	109	.
CS(=O)(=O)c1ccc(NC(=O)CSCc2ccc(F)cc2)cc1	114	102	.	-6
CN(C)CCCN1C(=O)CSC1c1ccccc1 (stereo not given)	77	91	102	-1
COC(=O)C1C(=O)C2=C(CC1C)Nc1ccccc1NC2c1c[nH]c2ccccc12 (stereo not given)	99	85	101	2
COc1cc2oc(=O)cc(C)c2cc1OC	117	59	110	-10
O=C1OC2(CCCC2)OC(=O)C1=CNc1ccccc1	83	106	101	4
Cc1nn(-c2ccc(-c3noc(C4CCC4)n3)cc2)cc1C(=O)Nc1ccc(-c2ccno2)cc1	.	.	100	-17
CCN(CC)C(=S)NC1CCCCC1	89	94	.	2
CC(C)(C)NC(=S)Nc1cccc(C(F)(F)F)c1	0.1*	2.0*	.	10
O=C(c1nn2c(C(F)(F)F)cc(-c3cccs3)nc2c1Cl)N1CCCc2ccccc21	92	106	.	-9
Cc1ccc(-c2nc(SCC(=O)NCC3CCCO3)c(-c3ccc(C)cc3)[nH]2)cc1 (stereo not given)	97	83	102	-21
Cc1cc(C)c(C#N)c(Cl)n1	102	92	109	-1
O=C(Nc1ccc(F)cc1F)C1CCN(c2ncccn2)CC1	108	87	98	-26
CCOc1ccc(/C=C2/SC(=Nc3ccccc3Cl)NC2=O)cc1	.	.	105	-28
COc1cc(C)cc(CN2CCN(S(=O)(=O)/C=C/c3ccccc3)CC2)c1O	83	94	.	-24
Cn1c(SCc2ccc(Br)cc2)nc2c([nH]c3ccccc32)c1=O	89	99	107	.
O=S(=O)(NC1CCCC1)c1ccc(-c2nnc(C3CC3)o2)s1	.	.	109	-42
CCOC(=O)c1cc(C#N)c(=S)[nH]c1-c1ccccc1	98	85	97	-20
Cc1cc2ccccc2n1CC(=O)N(C)CCc1cn[nH]c1	103	94	97	-19
NC(=O)c1ccccc1OC1CCC1	112	89	101	-18
Cc1ccc2c(c1)N(C(=O)Nc1ccc(Br)cc1F)CCO2	110	105	102	-7
CCC(=O)Nc1ccc2nc(SCC(=O)Nc3ccc(C(C)=O)cc3)sc2c1	.	.	104	-13
Cc1nc(Oc2cccc(Cl)c2)c2c(C)c(C)sc2n1	.	.	104	-21
Cc1cc(NCCOCCO)n2nc(-c3ccc(Cl)cc3)c(C)c2n1	.	.	116	-4
O=S(=O)(c1ccc(Cl)nc1)N1CCCCC1	100	85	.	-15
COc1ccc(NC(=O)Cn2c(SCc3cc(C)ccc3C)nc3ccncc32)c(OC)c1OC	106	86	105	-8
Cc1ccc(OCC(=O)Nc2ccccc2C(=O)OCc2cc(=O)n3c(C)csc3n2)cc1	101	68	102	.
Cc1cnn(-c2cc(Oc3ccccc3)ncn2)c1	113	92	106	6
CCC(C)C(=O)N1CCCC(c2nc(-c3cccs3)no2)C1 (stereo not given)	97	70	98	11
Cc1nn(C)c(C)c1Cc1c(F)cccc1Cl	86	85	102	-20
O=C(c1ccco1)N1CCN(CC(=O)N(C2CCCCC2)C2CCS(=O)(=O)C2)CC1 (stereo not given)	90	95	.	1
O=C(CSc1nnc(NC(=O)NC2CCCCC2)s1)Nc1ccccc1F	110	88	101&106	.
Fc1nc(F)c(F)c(Oc2c(F)c(F)c3c(F)c(F)c(F)c(F)c3c2F)c1F	93	81	107	-15
O=C(NCCN1CCN(Cc2ccccc2)CC1)c1cc(=O)[nH]c2ccc(S(=O)(=O)N3CCCC3)cc12	89	90	99	-17
(continued)
SMILES	Sa growth inh	Sa growth inh second temp	GIV-Gai inh	HCMV NEC inh
O=C(/C=C/c1ccco1)OCc1cc(=O)n2c(n1)sc1ccccc12	82	70	.	-24
CCN1CCCC1CNC(=O)Cn1ncc2c3ccccc3n(Cc3ccccc3C)c2c1=O (stereo not given)	92	63	102	-8
CC(C)(C)c1ccc(Cn2c(=O)n(Cc3ccc4c(c3)OCO4)c(=O)c3ccccc32)cc1	109	84	102	.
C=CCOc1ccc(/C=C2\C(=O)N(c3ccc(S(N)(=O)=O)cc3)N=C2C(F)(F)F)cc1OC	106	57	103	.
CC(=O)Nc1ccc(C(=O)OCc2cccc(F)c2)cc1	109	96	110	4
CCN(CC)c1ccc(/C=N/N=C(\N)c2nonc2N)cc1	104	85	107	-30
N#CC1=C(N)OC2=C(C(=O)OC2)C1c1c(Cl)cccc1Cl (stereo not given)	54	73	99	8

Ordered by number of heavy atoms (ascending): some entries from above
SMILES	Sa growth inh	Sa growth inh second temp	GIV-Gai inh	HCMV NEC inh
N#CC1=C(N)OC2=C(C(=O)OC2)C1c1c(Cl)cccc1Cl (stereo not given)	54	73	99	8
O=C(/C=C/c1ccco1)OCc1cc(=O)n2c(n1)sc1ccccc12	82	70	.	-24
C=CCOc1ccc(/C=C2\C(=O)N(c3ccc(S(N)(=O)=O)cc3)N=C2C(F)(F)F)cc1OC	106	57	103	.
